Source: PubChem (National Center for Advancing Translational Sciences (NCATS))
D2 agonist: activates the human D2 dopamine receptor. P14416. DiscoveRx PathHunter D2 beta-arrestin, luminescence, 90 min; 100% = 57 uM dopamine signal. activation, % (no concentration beside the values). 0.084% of 360,000 active. AID 624465; in the data active = activation above about 40%; inconclusive = about 15% to 40%; inactive = below about 15%; note: compound concentration not given in the record; the text of the record calls up to 30% inactive
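DiscoveRx PathHunter D2 beta-arrestin cells (2,100/well) attached overnight, then compound-stimulated 90 min at 37 C in HBSS/10 mM HEPES/0.1% Tween-20 buffer; beta-galactosidase complementation read by luminescence after 1 h at ambient temperature. Dopamine 57 uM final (EC100) as control.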
Six1-Eya2 blk: blocks human Six1 binding to Eya2 | AID 651725 | activity change, % (test concentration not listed) | 0.56% of 360,000 active | AlphaScreen GST-Six1/His-Eya2 binding, biochemical; active compounds read low; control for the full effect not named in the record | Q15475+O00167; in the data active = activity change below about -65%; inconclusive = about -30% to -65%; inactive = above about -30%; note: % is set by controls: 0 for no effect and ±100 for the full control effect
Target sequence (O00167 whole entry, looked up): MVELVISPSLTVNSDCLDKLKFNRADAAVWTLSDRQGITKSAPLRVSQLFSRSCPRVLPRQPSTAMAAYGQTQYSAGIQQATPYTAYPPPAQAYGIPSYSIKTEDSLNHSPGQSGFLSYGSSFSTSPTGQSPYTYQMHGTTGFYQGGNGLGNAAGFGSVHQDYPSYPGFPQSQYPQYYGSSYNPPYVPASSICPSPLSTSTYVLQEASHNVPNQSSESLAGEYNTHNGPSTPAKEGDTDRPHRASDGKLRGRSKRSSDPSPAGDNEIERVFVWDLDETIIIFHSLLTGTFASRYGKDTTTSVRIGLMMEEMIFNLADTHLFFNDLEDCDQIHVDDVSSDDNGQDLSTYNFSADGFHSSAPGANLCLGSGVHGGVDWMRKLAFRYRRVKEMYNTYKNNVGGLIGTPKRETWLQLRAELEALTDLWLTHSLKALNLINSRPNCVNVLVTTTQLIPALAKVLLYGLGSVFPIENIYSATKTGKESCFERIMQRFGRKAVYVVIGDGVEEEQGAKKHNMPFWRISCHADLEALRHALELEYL
Target sequence (Q15475 whole entry, looked up): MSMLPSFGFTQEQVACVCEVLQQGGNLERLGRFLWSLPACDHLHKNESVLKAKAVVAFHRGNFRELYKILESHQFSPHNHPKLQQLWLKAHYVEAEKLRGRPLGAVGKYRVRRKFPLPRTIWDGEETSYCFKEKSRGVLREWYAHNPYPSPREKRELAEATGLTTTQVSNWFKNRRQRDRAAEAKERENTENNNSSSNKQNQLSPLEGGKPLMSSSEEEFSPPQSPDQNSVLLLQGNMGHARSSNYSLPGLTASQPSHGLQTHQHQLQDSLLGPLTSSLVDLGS
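AlphaScreen with GST-Six1 and His-Eya2 (5X mix: 250 nM and 500 nM), glutathione donor and nickel acceptor beads; buffer 50 mM Tris pH 8.0, 300 mM NaCl, 1 mM TCEP; 1 h at 37 C in the dark.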
TRPML1 agonist: human mucolipin-1 channel agonism | TRPML1-expressing cells, Ca2+ dye fluorescence, FDSS; host cell line not named in the record; reference of the full effect not given here | activation, % (test concentration not listed) | 0.12% of 410,000 active | AID 624414; in the data active = activation above about 50%; inconclusive = about 30% to 50%; inactive = below about 30%; note: 0% is about no effect; the text of the record puts the active cut at 80%
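Cells: TRPML1-DL, 1X Tet inducer, ~16 h at 37 degrees C/5% CO2. Dye: ABD Ca8 no-wash + quencher, 45-90 min RT. Read: 10 s baseline, compound add, 110 s agonist phase; 54-4 EC80 (4uM final), 110 s antagonist phase.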
PINK1 modulator: PINK1 expression modulation; Potency, µM (top dose mostly 76.6 µM), for inactives: at the top dose activation (PINK1 increase), usual class: activators; 0.2% of 410,000 active; PINK1 immunofluorescence, high-content cytometry, 24 h; active = well fitted activation curve with a large enough effect; inconclusive = small, poorly fitted or top-dose-only effect; inactive = flat fitted curve, though single readings scatter; cell line not stated here;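 note: potency is the fitted concentration of half-maximal effect; % of control where 0% means no effect; nearly all actives have a fitted effect of over 65% in size; a mitochondrial uncoupler was the plate control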
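Readout is PINK1 immunofluorescence, quantified alongside mitochondrial, cell and nuclear markers by laser-scanning microplate cytometry. Cells from a stable line were exposed to compound titrations (5 concentrations) for 24 hours, with CCCP controls.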
D2 potentiator: potentiates the human D2 dopamine receptor allosterically; P14416; DiscoveRx D2 beta-arrestin cells, luminescence, 90 min; 100% = 57 uM dopamine signal; potentiation, % (concentration not given with the values); 0.23% of 360,000 active; AID 624464; active = potentiation of 50% or more; inconclusive = 30% to 50%; inactive = 30% or less;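 note: compound concentration not given in the record; tested on top of an EC20 dose of dopamine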
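PathHunter beta-arrestin assay in DiscoveRx D2 cells. Compounds were added with an EC20 of dopamine (50 nM final) for 90 min at 37 deg C. Luminescence was read 1 h after detection reagent, with 57 uM dopamine as the EC100 control.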
TRPML1 blocker: human mucolipin-1 channel inhibition. Q9GZU1. AID 624415. activity change, negative = inhibition, % (concentration not given with the values). 0.02% of 390,000 active. TRPML1-inducible cells, Ca2+ dye fluorescence, FDSS; active compounds read low; inhibition of EC80 agonist-evoked calcium signal; in the data active means activity change below about -50%; inconclusive means about -30% to -50%; inactive means above about -30%;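 note: stimulus is agonist 54-4 at its EC80 concentration; % is set by controls: 0 for no effect and ±100 for the full control effect; the text of the record puts the active cut at -80%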
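Calcium fluorescence in TRPML1-DL cells induced overnight with Tet: a 110 s read after compound pin addition, then a 110 s antagonist read after challenge with 54-4 at 4 uM final (EC80).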
* = called active by the depositor; ? = inconclusive; / = no result given; [ ] = dose if it differs, or a comment.

[1] Cc1sc(-c2ccncc2)nc1OC(=O)c1ccccc1
[2] COc1cccc(OCc2nc3ccccc3n2C)c1
[3] Cc1cc(NC(=O)Nc2ccccc2)n(-c2ccccc2)n1
[4] CCCCCC(=O)Nc1cccc(C2=NOC3(C2)C[C@@H](C(N)=O)N(C(=O)C2(C)CC2)C3)c1 (stereo partly specified)
[5] CCc1cccc2sc(NC(=O)c3ccc(N4C(=O)CCC4=O)cc3)nc12
[6] CNc1ncnc2c1ncn2[C@H]1CN(Cc2ccc(-c3ccccc3)cc2)C[C@@H](CO)O1
[7] CNc1cccc(-c2ccc(C(C)=O)s2)n1
[8] COc1cc2nc(-c3cccs3)oc(=O)c2cc1OC

compound no.,1,2,3,4,5,6,7,8
D2 agonist,-0.9,/,4.7,-0.3,0.2,3.8,3.8,-2.3
Six1-Eya2 blk,-17.9,/,-1.6,1.1,2.7,-7.4,11.1,0.3
TRPML1 agonist,3.2,0.0,-0.1,0.5,0.1,1.0,-0.8,0.3
PINK1 modulator,2.3%,-0.3%,-1.0%,0.1%,-0.6%,2.7%,0.6%,/
D2 potentiator,0.7,/,-13.5,0.7,-2.4,-13.2,1.4,-2.7
TRPML1 blocker,6.2,8.1,-2.0,6.4,18.4,/,/,3.6

[9] COc1ccc(-c2oc3cccnc3c2C#CC2(O)CCCCC2)cc1
[10] CC(C)Cc1nc(Nc2ccccc2C#N)c2nnn(Cc3ccccc3)c2n1
[11] N=c1c2c(n(Cc3ccc(Cl)cc3)c3c1CCC3)CCC2
[12] COC(=O)c1cn(NC(=O)C2COc3ccccc3O2)c(=O)c2ccccc12 (stereo unspecified)
[13] CCOc1ccc(OCCC(=O)NNC(=O)c2ccccc2Cl)cc1
[14] Cc1ccc(-c2cn(-c3ccccc3)c(=S)[nH]2)cc1C
[15] Cc1ccc(CNC(=O)CSc2nc3ccsc3c(=O)n2-c2ccc(C(=O)O)cc2)cc1
[16] COc1ccc(OC)c(NC(=O)C(Cc2ccccc2)NS(=O)(=O)c2ccc3c(c2)CCC(=O)N3)c1 (stereo unspecified)

compound no.,9,10,11,12,13,14,15,16
D2 agonist,-2.7,0.8,-2.0,0.4,-2.9,2.4,/,/
Six1-Eya2 blk,9.0,5.8,-1.9,-10.5,-3.2,-4.4,/,/
TRPML1 agonist,2.7,1.6,-0.1,1.2,-0.5,-1.2,2.0,-1.0
PINK1 modulator,-0.9%,7.6%,?,-1.6%,-0.3%,0.2%,1.4%,1.5%
D2 potentiator,-12.6,2.0,-11.8,4.0,-16.6,-11.5,/,/
TRPML1 blocker,75.1,-10.6,7.1,2.0,-6.2,17.0,-4.0,-2.8

[17] CN1C(=O)/C(=C2\SC(=S)N(C(CCC(=O)O)C(=O)O)C2=O)c2ccccc21 (stereo unspecified)
[18] CCc1ccccc1N=C1S/C(=C/c2ccccc2OCC(=O)N2CCOCC2)C(=O)N1C
[19] O=C(O)C(C(O)c1ccc([N+](=O)[O-])cc1)[n+]1ccccc1 (stereo unspecified)
[20] O=C1CN2NC(=S)N(c3ccc(Cl)cc3)C2=CN1c1ccc(Cl)cc1
[21] c1ccc(-c2nnc(CN3CCCc4ccccc43)o2)cc1
[22] CC1(c2nnc(-c3ccccc3)o2)CC(c2ccc(Cl)cc2)=NO1 (stereo unspecified)
[23] Cc1cccc(NC(=O)CSc2nc3c([nH]c4ccccc43)c(=O)n2C)c1C
[24] CC(=O)C1=C(c2ccc(Cl)c(Cl)c2)N(C(C)=O)n2c(C)nnc2S1

compound no.,17,18,19,20,21,22,23,24
D2 agonist,-1.1,-2.6,-1.4,-5.4,-1.8,-1.0,/,/
Six1-Eya2 blk,-2.8,-17.0,1.4,-3.2,-2.3,0.8,/,/
TRPML1 agonist,-0.3,0.9,0.0,2.5,-0.5,-0.6,0.4,1.5
PINK1 modulator,-0.2%,0.6%,0.6%,1.4%,2.3%,1.8%,1.3%,?
D2 potentiator,-4.5,6.7,-1.6,-18.4,16.0,-10.2,/,/
TRPML1 blocker,-13.6,14.2,-9.4,5.9,-3.7,13.9,-13.6,-13.3

[25] Cc1cc(C(=O)CCl)c(C)n1-c1c(C)n(C)n(-c2ccccc2)c1=O
[26] COc1ccc(NC(=O)c2ccco2)cc1NC(=O)COc1cccc(C)c1C
[27] O=C(Nc1ccc(F)cc1)Oc1ccccc1N1CCOCC1
[28] COc1ccccc1Nc1nc(-c2ccccc2O)nc2ccccc12
[29] Cc1ccccc1NC(=O)Nc1ccccc1C(N)=O
[30] CCOC(=O)c1ccc(NC(=O)C2CCN(S(=O)(=O)c3c(C)nn(C)c3C)CC2)cc1
[31] CC1CCN(Cc2nc(-c3ccc(Cl)cc3)no2)CC1
[32] CN1CCN(C(=O)c2cnn(-c3ccccc3)c2NC(=O)c2ccc(Br)cc2)CC1

compound no.,25,26,27,28,29,30,31,32
D2 agonist,4.5,/,-1.6,5.9,-7.8,-5.0,3.1,0.0
Six1-Eya2 blk,-5.8,/,1.5,-4.9,0.0,-4.4,4.2,16.9
TRPML1 agonist,-0.4,-0.4,-0.2,-0.5,0.6,-0.6,1.6,-0.1
PINK1 modulator,-2.9%,4.2%,1.3%,12.7%,-0.9%,-0.3%,17.1%,0.8%
D2 potentiator,1.7,/,1.4,3.9,-2.1,-6.6,-1.5,-28.7
TRPML1 blocker,18.8,0.9,5.5,8.9,9.4,8.0,-7.7,-4.8

[33] COc1ccc(C(=O)NCCS(=O)(=O)N2CCN(C(=O)c3ccco3)CC2)cc1
[34] OC(COC(c1ccc(Cl)cc1)c1ccc(Cl)cc1)CN1CCCC1 (stereo unspecified)
[35] O=C(COC(=O)c1ccc2c(c1)C(=O)N(Cc1ccncc1)C2=O)Nc1ccccc1[N+](=O)[O-]
[36] Cc1cc(NC(=O)COC(=O)C2CCN(S(=O)(=O)c3c(Cl)cccc3Cl)CC2)no1
[37] COCCn1c(C)cc(O)c(C(c2ccccc2Cl)N2CCN(c3ccccc3)CC2)c1=O (stereo unspecified)
[38] COc1cccc(-c2nnc(SCN3C(=O)c4ccccc4C3=O)n2C)c1
[39] Cc1c(-n2c(-c3ccccc3)nc3ccccc3c2=O)c(=O)n(-c2ccccc2)n1C
[40] CC(C)C[C@H]1CN([C@@H](CC(C)C)CN2CCCC2CN2C(=S)NC[C@@H]2Cc2ccccc2)C(=S)N1CC1CCCCC1 (stereo partly specified)

compound no.,33,34,35,36,37,38,39,40
D2 agonist,-3.2,0.3,-1.9,-1.2,/,-3.2,3.5,/
Six1-Eya2 blk,-11.5,-5.4,-5.0,4.5,/,-3.3,3.5,-2.5
TRPML1 agonist,-0.4,8.9,-0.3,-0.8,1.9,1.5,-0.6,0.1
PINK1 modulator,1.1%,1.4%,-0.5%,0.9%,-0.9%,0.4%,-1.4%,6.2%
D2 potentiator,-6.2,5.4,7.4,-6.3,/,-18.9,5.4,/
TRPML1 blocker,2.8,-1.5,-15.2,10.4,-17.2,-5.9,-17.1,/

[41] O=C(Cn1cc(C(F)(F)F)ccc1=O)N/N=C/c1ccc(F)cc1
[42] O=[N+]([O-])c1cc(S(=O)(=O)N2CCCCC2)ccc1NCc1cccc(Cl)c1
[43] CCN(C[C@H]1N[C@@](CC)(C(=O)OC)[C@H]2C(=O)N(C)C(=O)[C@@H]12)C(=O)Nc1ccc(Cl)cc1
[44] Cc1nc(NC(=O)CCc2ccccc2)sc1C
[45] O=C(COC(=O)Cc1ccc(Cl)cc1)NCc1ccco1
[46] CC(=O)N1CCc2c(sc3c2c(=O)n(-c2ccccc2C)c(=O)n3CC(=O)Nc2ccccc2)C1
[47] N#CCC(=O)N/N=C/c1cc(Br)ccc1OCc1cccc2ccccc12
[48] O=c1oc2ccccc2c(Nc2ccc(F)cc2)c1[N+](=O)[O-]

compound no.,41,42,43,44,45,46,47,48
D2 agonist,-4.0,-5.0,-0.3,-7.6,-2.8,/,1.9,-3.0
Six1-Eya2 blk,30.5,-15.2,5.5,-12.0,-24.5,/,-5.2,-1.2
TRPML1 agonist,0.1,1.5,-1.1,0.3,1.1,-0.9,1.3,1.1
PINK1 modulator,-0.1%,0.5%,0.3%,0.9%,-3.4%,2.3%,9.3%,1.8%
D2 potentiator,-2.7,-9.1,-2.0,-3.5,-6.2,/,-1.6,-10.8
TRPML1 blocker,-5.6,59.0,-8.7,2.8,-10.1,10.9,12.4,-16.4

[49] COc1c2c(nc3ccccc13)OC(C(C)(O)CO)C2 (stereo unspecified)
[50] COc1ccc(OC)c(S(=O)(=O)N2CCCC(C(=O)N3CCOCC3)C2)c1 (stereo unspecified)
[51] CC(C)OP(C)(=O)CN1CCN(CP(C)(=O)OC(C)C)CC1 (stereo unspecified)
[52] Clc1cccc2c1Sc1ccccc1CC2N1CCNCC1 (stereo unspecified)
[53] COc1ccc(OC)c(/C=N/N2CCN(c3ccc(Cl)cc3)CC2)c1
[54] O=C(Oc1cccc2ccccc12)c1ccco1
[55] N=c1ccccn1CC(O)COc1ccccc1 (stereo unspecified)
[56] CN(CCO)c1ccc(C=NNc2ccc([N+](=O)[O-])cc2S(=O)(=O)Nc2ccccc2C(=O)O)cc1
[57] CC(=O)c1sc(NC(=O)c2ccccc2)nc1-c1ccccc1
[58] O=C(Cc1c(Cl)cccc1Cl)N/N=C/c1cccnc1

compound no.,49,50,51,52,53,54,55,56,57,58
D2 agonist,0.1,-3.0,-2.1,-1.9,0.9,-3.4,-2.3,-6.5,-4.4,-5.7
Six1-Eya2 blk,2.4,11.2,4.6,21.3,-2.9,4.4,-5.4,-9.0,-2.1,-0.1
TRPML1 agonist,0.0,-0.6,0.9,0.1,1.0,-0.4,0.0,3.4,0.1,0.1
PINK1 modulator,/,-0.8%,-1.1%[38.3 µM],-3.8%,1.5%,5.1%[38.3 µM],-1.4%,1.0%,4.6%,-0.2%
D2 potentiator,14.7,-3.4,-5.5,-16.6,-12.6,1.8,-13.5,-21.4,-2.3,3.0
TRPML1 blocker,-1.2,3.1,12.3,5.6,4.2,8.2,0.9,?,-6.5,-14.1

Single records, from the list above. Order of screens: D2 agonist | Six1-Eya2 blk | TRPML1 agonist | PINK1 modulator | D2 potentiator | TRPML1 blocker
Profile of `COc1ccc(OC)c(/C=N/N2CCN(c3ccc(Cl)cc3)CC2)c1` : 0.9 | -2.9 | 1.0 | 1.5% | -12.6 | 4.2
Profile of `COc1ccc(OC)c(S(=O)(=O)N2CCCC(C(=O)N3CCOCC3)C2)c1` (stereo unspecified) : -3.0 | 11.2 | -0.6 | -0.8% | -3.4 | 3.1
Profile of `O=C(Cc1c(Cl)cccc1Cl)N/N=C/c1cccnc1` : -5.7 | -0.1 | 0.1 | -0.2% | 3.0 | -14.1
Profile of `COc1c2c(nc3ccccc13)OC(C(C)(O)CO)C2` (stereo unspecified) : 0.1 | 2.4 | 0.0 | / | 14.7 | -1.2

The order is random; overall some 1% were active at least once.
